# High-throughput results (PubChem BioAssay)
# miR-21 FLuc – miR-21 reporter, rising signal. HeLa miR-21 FLuc reporter, luciferase, 48 h. AID 2288. 340,000 tested, under 10 active. Potency, µM (titrated, usually from 38.3 µM), for the others: at the top dose reporter change, positive = more light; active = well fitted rising curve with a large enough effect; inconclusive = small, poorly fitted or top-dose-only effect; inactive = no such curve, though single readings can be large or run the other way;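 also: % of control where 0% means no effect; miR-21 action dims this reporter so a rising signal means less miR-21 action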
#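 Using DMEM plus 10% FBS, HeLa miR-21-FLuc cells are incubated with test compounds (final up to about 40uM) for 48 hours; firefly luciferase signal is then imaged following reagent-mediated lysis.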
# Rango complex inh – inhibitors of Rango-importin beta complex formation | Potency, µM (top dose mostly 92.2 µM), for inactives: at the highest dose inhibition of complex formation | Rango CFP/YFP FRET sensor + importin beta, 45 min | actives 0.031% (n = 340,000) | Q14974; active = rising FRET ratio curve, often small or poorly fitted; inconclusive = mostly compound fluorescence or quenching in the first reads; inactive = flat curves in all reads;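 also: potency is read from the fitted curve at half-maximal effect; 0% = DMSO wells and 100% = buffer wells lacking importin beta; nearly all actives have a fitted effect of over 15% in size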
# Target sequence (Q14974 whole entry, looked up): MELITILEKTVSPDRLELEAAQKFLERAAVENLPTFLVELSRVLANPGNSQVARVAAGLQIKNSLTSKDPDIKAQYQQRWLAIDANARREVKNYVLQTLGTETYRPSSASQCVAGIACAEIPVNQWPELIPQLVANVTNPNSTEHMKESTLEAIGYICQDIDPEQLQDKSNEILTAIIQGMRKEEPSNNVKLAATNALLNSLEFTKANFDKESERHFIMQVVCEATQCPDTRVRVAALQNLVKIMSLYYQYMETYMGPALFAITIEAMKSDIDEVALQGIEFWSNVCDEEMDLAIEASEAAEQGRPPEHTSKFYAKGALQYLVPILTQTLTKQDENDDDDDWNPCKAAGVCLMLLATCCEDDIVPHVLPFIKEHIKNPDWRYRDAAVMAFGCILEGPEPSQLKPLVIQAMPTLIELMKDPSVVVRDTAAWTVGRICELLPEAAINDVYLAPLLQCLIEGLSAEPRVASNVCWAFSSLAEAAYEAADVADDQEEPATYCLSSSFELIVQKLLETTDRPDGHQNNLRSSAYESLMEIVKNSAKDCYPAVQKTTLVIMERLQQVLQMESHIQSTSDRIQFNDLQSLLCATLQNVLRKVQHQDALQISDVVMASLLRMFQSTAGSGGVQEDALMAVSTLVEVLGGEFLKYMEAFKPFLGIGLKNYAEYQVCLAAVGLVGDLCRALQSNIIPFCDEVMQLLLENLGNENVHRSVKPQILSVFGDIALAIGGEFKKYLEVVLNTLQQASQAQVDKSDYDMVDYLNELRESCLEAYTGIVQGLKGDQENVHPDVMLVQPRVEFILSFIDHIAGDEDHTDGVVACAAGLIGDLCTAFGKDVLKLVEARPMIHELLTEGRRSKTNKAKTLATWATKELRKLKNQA
#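 FRET biosensor (snurportin 1 IBB flanked by EYFP and cerulean), 50 nM, with compound 5 min, then 0.125 microM importin beta in PBS, 1 mM DTT, 0.02% Tween-20, 0.1% BSA. CFP/YFP ratio read after 45 min at room temperature; pre-read flags interference.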
# Rango dissoc inh – prevents RanGTP from dissociating the Rango-importin beta complex; Potency, µM (titrated, usually from 46.1 µM), inactives show top-dose activity change, negative = inhibition; Biochemical FRET Rango-importin beta, RanGTP-induced dissociation; AID 540253; actives 0.071% (n = 340,000); active means falling FRET ratio curve, often poorly fitted, with flat reads before Ran was added; inconclusive means other falling curves, or compound fluorescence or quenching; inactive means flat or rising ratio curve;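 also: potency is read from the fitted curve at half-maximal effect; % of control where 0% means no effect; nearly all actives have a fitted effect of over 45% in size; -100% = wells without RanGTP and RCC1; the record marks most hits as doubtful in a second field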
#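 Recombinant Rango FRET biosensor (EYFP–snurportin 1 IBB–cerulean CFP10) at 0.1 uM premixed with 0.25 uM importin beta in PBS, 1 mM DTT, 0.02% Tween-20, 0.1% BSA. Compound added 5 min; RanGTP-RCC1 (0.6 uM Ran, 2 mM GTP, 0.2 uM RCC1) then triggers release, read at 45 min.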
# GLA inh pH 4.5 – inhibitors of human alpha-galactosidase A at pH 4.5. activity change, negative = inhibition, % at 105 µM. P06280. purified enzyme, 4-MU-alpha-Gal fluorescence, pH 4.5. 230,000 tested, under 10 active; inconclusive = small, poorly fitted or top-dose-only inhibition, or a rising curve; inactive = flat fitted curve, though single readings scatter; no compound was filed as active;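 also: 0% = full activity with enzyme and -100% = basal without enzyme; dose as in the result columns while the protocol names 77 µM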
# Numbers without * were called inactive; ? = inconclusive; . = not tested or not shown.
miR-21 FLuc | Rango complex inh | Rango dissoc inh | GLA inh pH 4.5 | compound
-2.8% | -0.1% | -1.0% | 5.6 | CCCOc1ccc(C(=O)N2CC3(CC(c4cccc(NC(=O)[C@@H]5CCC(=O)N5)c4)=NO3)C[C@H]2C(=O)NC2(C(N)=O)CC2)cc1 (stereo partly specified)
. | 1.2% | 1.1% | . | NC(=O)c1cc(S(=O)(=O)N2CCCC2)ccc1OCCOc1ccccc1
10.2% | 2.2% | 0.0% | -4.0 | COC(=O)c1cc(=O)n(CCc2ccc(OC)cc2)c(=Nc2ccc(F)c(Cl)c2)s1
1.4% | -3.4% | -4.3% | 0.3 | CCn1c(-c2ccc(OC)c(OC)c2)n[nH]c1=S
8.0% | 1.3% | 21.6% | 4.7 | COCCn1c(-c2cccs2)csc1=Nc1cccnc1
. | -1.8% | -8.4% | . | COCCOc1ccc(C(F)(F)F)cc1NC(=O)CN1C(=O)NC(C)(c2ccc3c(c2)OCO3)C1=O (stereo unspecified)
-6.9% | -1.0% | 0.2% | -15.6 | COc1ccccc1NC(=O)Nc1nn(C)c2cccc(OC)c12
. | -0.1% | -11.9% | . | COc1ccc(NC(=O)COC(=O)C2CCN(S(=O)(=O)c3ccccc3)CC2)cc1Cl
. | 1.2% | 7.3% | . | COc1ccc(OC)c2nc3c(C(=O)NCCN(C)C)cccc3nc12
-10.9% | 2.4% | -4.2% | -1.2 | Cc1cnc(C(=O)N2CCN(c3ccc(C(F)(F)F)cn3)CC2)cn1
3.2% | -0.9% | 8.1% | -12.8 | CSCCC(NC(=O)c1ccc(Cl)cc1)C(=O)O (stereo unspecified)
-3.0% | ? | 1.2% | -12.7 | Cc1c(NC(=O)c2c(NC(=O)CNC3CC3)sc3c2CCCC3)c(=O)n(-c2ccccc2)n1C
-18.5% | -1.2% | 0.4% | -1.6 | Cc1ccnc(NC(=O)/C=C/c2ccccc2Cl)c1
. | -0.2% | -2.9% | . | CCOCCn1c(CN2CCN(c3ccc(OC)cc3)CC2)nc2c1c(=O)n(C)c(=O)n2C
-4.0% | -0.7% | 17.1% | 5.0 | Cc1ccc(-n2ncc3c(=O)[nH]c(SCC(=O)N4CCCCC4)nc32)cc1
-0.5% | -0.7% | 1.4% | -1.9 | O=C(COC(=O)c1ccccc1C(=O)c1ccccc1)Nc1ccc(SC(F)F)cc1
5.8% | -1.8% | -0.4% | . | COc1cc2c(cc1OC)C(c1cc(OC)c(OC)c(OC)c1)NCC2 (stereo unspecified)
-2.1% | 4.6% | -11.3% | . | Cc1ccccc1C(=O)NC1CCN(C(=O)NC2CCCCC2)CC1
0.6% | -5.1% | -3.9% | 3.7 | CN(Cc1ccccc1)C(=O)c1ccccc1NC(=O)c1ccccc1
-29.6% | 8.5% | -6.4% | . | Cc1cccnc1Nc1nc(-c2ccccc2)cs1
0.5% | 3.2% | 0.7% | . | O=C(CN(C(=O)CCC(=O)Nc1nccs1)c1ccc(F)c(Cl)c1)NCC1CCCO1 (stereo unspecified)
. | -4.5% | -7.1% | . | CC(C)Oc1ccc(S(=O)(=O)N2CCOCC2)cc1NC(=O)C(C)Oc1ccc(F)cc1 (stereo unspecified)
. | 1.0% | -23.5% | . | CC(C)c1ccc(S(=O)(=O)Nc2ccc3c(c2)OCO3)cc1
-0.1% | -0.3% | 0.7% | . | Cc1oc2c(c(C)cc3oc(=O)c(CC(=O)N[C@@H](CCCNC(N)=O)C(=O)O)c(C)c32)c1C
-10.4% | 1.0% | 6.7% | -16.5 | Cc1ccc(N2CCN(C3=NC(=O)/C(=C\c4cccs4)S3)CC2)cc1
. | -6.8% | -1.0% | . | CC1(C)C(=O)Nc2ccccc2N1C(=O)COC(=O)c1cccc(O)c1
-43.3% | 0.1% | -12.0% | 6.0 | O=C(Nc1ccc(NC(=O)c2cccs2)cn1)c1ccccc1
. | -1.7% | 6.7% | . | O=C(O)c1cc(S(=O)(=O)N2CCCCC2)ccc1N1CCOCC1
-1.2% | -3.0% | 3.2% | 1.3 | O=C1C2C3c4ccccc4C(c4ccccc43)[C@@H]2c2nc3ccccc3n21 (stereo partly specified)
-10.4% | 8.5% | -3.3% | 2.9 | O=C(CCNc1cccc(Cl)c1)c1ccco1
-0.7% | 0.5% | -11.2% | 8.6 | CC1CCCN(S(=O)(=O)c2ccc(NC(=O)CN3CCN(C)CC3)cc2)C1 (stereo unspecified)
-7.6% | -1.2% | -1.8% | . | Cc1cc2occ(CC(=O)NNC(=O)c3ccccc3)c2cc1C
1.8% | 0.6% | 4.2% | -2.3 | CCC(=O)Nc1ccc(OC)cc1OC
-3.9% | 1.6% | 1.4% | -1.3 | CN(C(=O)COC(=O)CNC(=O)C12CC3CC(CC(C3)C1)C2)C1CCS(=O)(=O)C1 (stereo unspecified)
-7.7% | -0.6% | -14.8% | 3.1 | COC(=O)C1=C(C)N(CCCC(=O)O)C(=O)NC1c1cc2c(cc1[N+](=O)[O-])OCO2 (stereo unspecified)
-1.4% | 0.5% | 22.7% | 2.9 | CC(C)CCN1CCN(C2CCN(c3ccccc3)CC2)CC1CCO (stereo unspecified)
. | -1.5% | -1.6% | . | CC(C)(C)NC(=O)NC(=O)CN1CCN(S(=O)(=O)c2ccc3c(c2)CCCC3)CC1
0.8% | -1.8% | -9.5% | 3.1 | CC(C)c1nnc(NC(=O)CCCCCN2C(=O)C3C4C=CC(C4)C3C2=O)s1 (stereo unspecified)
-2.5% | -0.1% | 2.7% | -6.9 | C/C=C(\C)C(=O)NCCN1C2=NC[C@H](C(C)C)N2C[C@@H]1Cc1ccc(OC)cc1
. | -0.6% | 29.9% | . | COCCn1c(SCC(=O)NN2C(=O)NC(C)(c3ccccc3)C2=O)nnc1-c1ccncc1 (stereo unspecified)
-11.0% | 2.8% | -7.9% | . | O=C(CNc1ccccc1Cl)c1ccc(Br)cc1
. | 2.2% | -17.9% | . | O=C(c1ccc(NS(=O)(=O)c2cccc([N+](=O)[O-])c2)cc1)N1CCN(C(=O)c2ccco2)CC1
-38.3% | 0.0% | -3.9% | 14.0 | Cc1cccc(OCCSc2cc(C)nc(N)n2)c1
5.3% | -4.7% | -6.3% | 1.6 | NC(=O)[C@H]1CC2(CC(c3cccc(NC(=O)[C@H]4CCC(=O)N4)c3)=NO2)CN1C(=O)c1cc([N+](=O)[O-])cc([N+](=O)[O-])c1 (stereo partly specified)
. | 5.0% | 13.6% | . | O=C(Nc1cc([N+](=O)[O-])c2[nH]c(=O)c3ccccc3c2c1)C(F)(F)F
21.7% | -0.6% | -6.1% | 1.5 | CCOC(=O)Nc1ccc2nc(Sc3ccc(Cl)cc3)sc2c1
4.3% | 0.0% | 9.7% | -12.7 | CCCC(c1nnnn1Cc1ccc(F)cc1)N1CCN(C2CCCCC2)CC1 (stereo unspecified)
5.9% | 2.3% | -10.4% | . | Cc1nc2ccccn2c1C(=O)NNC(=O)Nc1cccc(C(F)(F)F)c1
-1.7% | -1.6% | -9.2% | -5.4 | CC(C)CCNC(=O)COc1ccc(N(C)S(=O)(=O)c2ccc(F)cc2)cc1
0.1% | -1.8% | -5.9% | . | COc1cc(NC(=O)c2cccc(NC3=NC4CS(=O)(=O)CC4S3)c2)cc(OC)c1OC (stereo unspecified)

# (further entries)
miR-21 FLuc | Rango complex inh | Rango dissoc inh | GLA inh pH 4.5 | compound
. | 2.7% | 0.9% | . | CC1(c2nnc(-c3ccncc3)o2)CC(c2cccc(Cl)c2)=NO1 (stereo unspecified)
-4.3% | ? | ? | 1.3 | COc1ccc(/C(C)=N/OC/C(O)=C(\C#N)c2nc3ccccc3[nH]2)cc1
-5.7% | -1.4% | -11.5% | 4.6 | CS(=O)(=O)Nc1nnc(SCC(=O)N(c2ccccc2)c2ccccc2)s1
12.7% | 1.1% | 3.4% | . | CCOc1ccc(N(C)S(=O)(=O)c2ccc3[nH]cc(C(=O)NCC(OC)OC)c(=O)c3c2)cc1
12.4% | -2.0% | -14.0% | 3.9 | COc1ccc(CCNC(=O)c2ccc(-c3cccc([N+](=O)[O-])c3)o2)cc1OC
-0.8% | 1.6% | -0.6% | 1.9 | COC(=O)c1scc(C)c1-n1ccc(C(=O)C(=O)N(C)C)c1
-4.5% | 0.1% | -11.2% | . | CCOC(=O)c1c(S(=O)(=O)NCc2cccs2)c(C)n(C)c1C
-10.5% | 4.0% | 6.7% | 2.8 | O=C(CCN1C(=O)c2ccccc2C1=O)Nc1ccc(F)cc1F
1.3% | -1.5% | -0.2% | 9.7 | CCOC(=O)CC1C(=O)NCCN1C(=O)NC1CCCCC1 (stereo unspecified)
10.5% | -0.2% | -11.8% | -0.7 | CCCCN1C2=NCCCN2c2cc(C)c(C)cc21
0.5% | 6.0% | -17.3% | 3.0 | Cc1ccc(C)c(-n2cc(-c3ccc(Cl)cc3)nc2SCC(=O)NC2CCS(=O)(=O)C2)c1 (stereo unspecified)
-3.5% | 0.0% | 0.1% | 4.4 | Cc1noc(C)c1COC(=O)c1ccc2c(c1)OCO2
-21.1% | -0.9% | 1.0% | -3.1 | CCOC(=O)c1ccc(Nc2ncnc3ccccc23)cc1
0.9% | -1.3% | 2.2% | 0.7 | COC(=O)c1ccccc1NC(=O)CSc1n[nH]c(-c2cccnc2)n1
-22.4% | 0.5% | 2.2% | -12.0 | COCc1cc(/C=N\NC(=O)Cc2ccc(OC)cc2)ccc1OC
0.4% | 1.9% | 0.1% | -16.4 | CCOC(=O)C1CCCN(S(=O)(=O)c2ccc(Br)s2)C1 (stereo unspecified)
-3.3% | -0.4% | 16.4% | -1.4 | CC(=O)c1ccc(NC(=O)C2CCCN(S(=O)(=O)c3c(C)[nH]c(=O)[nH]c3=O)C2)cc1 (stereo unspecified)
-64.3% | ? | ? | 1.2 | COc1cc2cc(C#N)c(SCC(=O)N3CCOCC3)nc2cc1OC
0.1% | ? | ? | 4.7 | CCOC(=O)c1oc2c(CN3CCN(CCO)CC3)c(O)c(CC)cc2c(=O)c1-c1nc2ccccc2s1
-24.7% | 0.1% | 15.7% | . | C/C(=N\NC(=O)c1ccc(N(C)C)cc1)c1cccnc1

# Retrieved by compound from the entries so far, four records:
miR-21 FLuc | Rango complex inh | Rango dissoc inh | GLA inh pH 4.5 | compound
0.4% | 1.9% | 0.1% | -16.4 | CCOC(=O)C1CCCN(S(=O)(=O)c2ccc(Br)s2)C1 (stereo unspecified)
0.1% | ? | ? | 4.7 | CCOC(=O)c1oc2c(CN3CCN(CCO)CC3)c(O)c(CC)cc2c(=O)c1-c1nc2ccccc2s1
-21.1% | -0.9% | 1.0% | -3.1 | CCOC(=O)c1ccc(Nc2ncnc3ccccc23)cc1
-3.3% | -0.4% | 16.4% | -1.4 | CC(=O)c1ccc(NC(=O)C2CCCN(S(=O)(=O)c3c(C)[nH]c(=O)[nH]c3=O)C2)cc1 (stereo unspecified)

# (further entries)
miR-21 FLuc | Rango complex inh | Rango dissoc inh | GLA inh pH 4.5 | compound
-9.3% | 1.6% | 0.2% | 5.3 | O=[N+]([O-])c1cc(Cl)ccc1N1CCN(c2ccccc2O)CC1
. | -1.7% | -7.8% | . | CN(C(=O)CSc1nc(C2CC2)n(-c2ccccc2)n1)C1CCS(=O)(=O)C1 (stereo unspecified)
-5.8% | 1.1% | 4.4% | 3.9 | COc1ccc(-n2cnnc2SCC(=O)N(C)C2CCS(=O)(=O)C2)cc1 (stereo unspecified)
-5.9% | -2.9% | -13.5% | -12.9 | O=C(CS(=O)(=O)c1cccc(Cl)c1)Nc1ccccc1Cl
-15.2% | -0.1% | ? | -1.4 | CCOC(=O)C(C)Sc1nc(=O)n2cccc(C)c2n1 (stereo unspecified)
-2.0% | -3.9% | 1.5% | 7.7 | C=CCC(O)c1c(-c2ccccc2)nn(C)c1Cl (stereo unspecified)
4.8% | 1.0% | 5.2% | . | O=C(CSc1nnc(CNC(=O)c2ccc(F)cc2)o1)NCC1CCCO1 (stereo unspecified)
0.6% | 1.9% | 5.7% | . | Cc1cccc(NC(=O)c2ccc(S(=O)(=O)N3CCCCC3)cc2)c1
-5.1% | -1.4% | 2.0% | -4.6 | Brc1ccc(C2=Nc3ccccc3C(c3ccncc3)=NN2)cc1
8.0% | -0.6% | -10.7% | . | O=C1/C(=C\c2cccc(O)c2)SC(=S)N1Cc1ccccc1

# The list is partial. The share of hits here may be higher or lower than overall.
